VDR inhibitor: blocks the human vitamin D receptor. P11473. Potency, µM, for the others: max response, negative = inhibition, most hits filed as inhibitors. VDR-SRC2-3 peptide fluorescence polarization, 2 h. AID 504847. 400,000 compounds, 0.93% hits; active = well fitted inhibition curve with a large enough effect; inconclusive = small, poorly fitted or top-dose-only effect, or another doubt; inactive = no such curve, though single readings can be large or run the other way; note: series mostly up to about 120 µM
Target sequence (P11473 whole entry, looked up): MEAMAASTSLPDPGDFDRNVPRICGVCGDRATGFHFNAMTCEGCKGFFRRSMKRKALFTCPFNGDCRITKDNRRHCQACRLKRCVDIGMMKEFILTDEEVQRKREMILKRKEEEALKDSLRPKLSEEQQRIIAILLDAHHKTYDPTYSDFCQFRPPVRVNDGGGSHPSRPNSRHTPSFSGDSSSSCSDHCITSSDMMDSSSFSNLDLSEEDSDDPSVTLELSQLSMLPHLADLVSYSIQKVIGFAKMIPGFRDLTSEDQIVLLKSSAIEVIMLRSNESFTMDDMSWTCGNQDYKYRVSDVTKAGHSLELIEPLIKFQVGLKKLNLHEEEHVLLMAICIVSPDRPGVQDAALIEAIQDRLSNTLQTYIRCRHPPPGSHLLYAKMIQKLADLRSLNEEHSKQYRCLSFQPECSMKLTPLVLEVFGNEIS
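Fluorescence polarization assay of small-molecule disruption of VDR binding to coregulator peptide SRC2-3. Compounds and controls pin-transferred, then read after 2 h incubation at ambient room temperature.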
* = called active by the depositor; ? = inconclusive; & = joins results of further samples. % is set by controls: 0 for no effect and ±100 for the full control effect; potency is the fitted concentration of half-maximal effect.

SMILES	VDR inhibitor
Cc1nn(Cc2ccc(Cl)cc2)c(C)c1NC(=O)c1cc(C(C)C)on1	8%
COc1ccc(C2Nc3ccccc3C(=O)N2c2ccc(F)cc2)cc1Cn1nnc2ccccc21 (stereo not drawn)	-2%
CCc1ccc(NC(=O)C2CCCN2S(=O)(=O)c2cccc3nsnc23)cc1 (stereo not drawn)	-3%
CCOc1cc(C2NN=C(c3ccccc3)S2)ccc1OCc1ccccc1Cl (stereo not drawn)	-29%
CCOC(=O)C(=Cc1c[nH]c2ccc(S(=O)(=O)N(C)C)cc12)C(=O)OCC	?
CCCCN(C(=O)c1c(CC)noc1C)c1c(N)n(CCCC)c(=O)[nH]c1=O	9%
Oc1ccc(/C=N/Nc2nn3cnnc3c3ccccc23)cc1	0%
O=C(Nc1nccs1)c1ncc(Cl)c(Cl)c1Cl	0%
N#Cc1cc([N+](=O)[O-])ccc1Oc1cccc(/C=N/NC(=O)c2cccc(Cl)c2)c1	-10%
O=C(CNC(=O)c1ccccc1F)N/N=C/c1cccs1	4%
Cc1ccc(-c2noc(CN(C3CCCCC3)S(=O)(=O)c3ccc(C)cc3)n2)cc1	7%
Cc1ccc(-n2nc3c(=O)n(CCCC(=O)NCc4ccccc4F)nc(C)c3c2C)cc1	-7%&6%
CCc1ccc(N(C(=O)CNC(=O)c2ccco2)C(C(=O)NCC2CCCO2)c2ccccc2)cc1 (stereo not drawn)	-10%
O=C(NC(Cc1ccccc1)C(=O)O)/C(=C/c1ccc(Br)cc1)NC(=O)c1ccc(Br)o1 (stereo not drawn)	-15%
O=S(=O)(NCCc1ccccn1)c1ccc(OC(F)(F)F)cc1	-2%
Cc1cc(=O)[nH]c(-c2cccs2)n1	-34%
CCOC(=O)C1CCN(C(=O)c2ccc3nc(-c4ccc(OC)cc4)c(-c4ccc(OC)cc4)nc3c2)CC1	13%
C=CCNC(=O)CN(c1cc(Cl)ccc1OC)S(=O)(=O)c1ccc(C)c([N+](=O)[O-])c1	4%
CN=C1N(C)C[C@@H]2[C@@H]3C(=O)N(C)C(=O)[C@@H]3[C@](C)(C(=O)OC)N12	-9%
COc1ccc(-n2nc(C(=O)NCCc3ccc(Cl)cc3)c3c4ccccc4n(C)c3c2=O)cc1	-18%
COc1ccc(CNC(=O)CSCc2c(F)cccc2Cl)cc1	-17%
Cc1ccc2nc(-c3ccc(NC(=O)c4ccccc4S(C)(=O)=O)cc3)sc2c1	-2%
Cc1ccc(NC(=O)N2CCSc3ccccc32)cc1	-15%
COc1ccc(CN(C)C(=O)Cn2cc(C)c(=O)[nH]c2=O)cc1OC	-27%
Cc1cccc(N2CCN(C(=O)Cn3ncc4c3-c3cc(C)ccc3OC4)CC2C)c1 (stereo not drawn)	-19%
O=C(O)C(CCc1ccccc1)N1C(=O)c2ccccc2C1=O (stereo not drawn)	-6%
Cn1nccc1C(=O)NCc1ccc2c(c1)CCN2C(=O)c1ccc(Cl)cc1	3%
Cc1ccc(S(=O)(=O)N2C(=O)CCC2C(=O)O/N=C(\N)c2cccc([N+](=O)[O-])c2)cc1 (stereo not drawn)	3%
COCCNC(=O)/C(C#N)=C/c1cccc(/C=C(\C#N)C(=O)NCCOC)c1	35µM*
Cc1cccc(C(=O)OCc2cc(=O)n3nc(C4CCCCC4)sc3n2)c1	12%
Cc1ccc(S(=O)(=O)/C=C2\NC(=O)CS2)cc1	-14%
O=C1CCCC/C1=C\Nc1ccc(Cl)cn1	-10%
CC(=O)c1ccc(NC(=O)C[n+]2ccc(N(C)C)cc2)cc1	-12%
Cc1cccc(-c2noc(C3CC(=O)N(c4ccc5c(c4)OCCO5)C3)n2)c1 (stereo not drawn)	13%
O=C(OCc1nnc(-c2ccccc2)o1)c1cccc(-n2cnnn2)c1	-9%
C=CCNC(=S)NNC(=O)COc1c(Cl)cc(Cl)cc1Cl	-12%

Individual results from above.
For VDR inhibitor, `O=C(O)C(CCc1ccccc1)N1C(=O)c2ccccc2C1=O` (stereo not drawn) has -6%
For VDR inhibitor, `O=C(OCc1nnc(-c2ccccc2)o1)c1cccc(-n2cnnn2)c1` has -9%

Next section.
SMILES	VDR inhibitor
Cc1ccc(C(NC(=O)NC(C)c2ccccc2)C(Cl)(Cl)Cl)cc1F (stereo not drawn)	-1%
CCOC(=O)N1CCN(C(=O)Nc2ccc3nccnc3c2)CC1	7%
O=C(O)c1nn(CC(=O)N2CCCCCC2)c(=O)c2ccccc12	-10%
COc1cccc(C2C=C(c3ccc(OC)cc3OC)Nc3nnnn32)c1 (stereo not drawn)	-24%
O=C(NN1C(=O)NC2(CCCCC2)C1=O)c1ccc(-c2ccc([N+](=O)[O-])cc2)o1	-9%
COc1ccc(-c2nnc(NC(=O)C3CCCO3)s2)cc1 (stereo not drawn)	4%
CCOC(=O)/C=c1\sc2n(c1=O)CCN=2	10%
Nc1ccccc1S(=O)(=O)Nc1cccc2cccnc12	-6%
Cc1cc2n(n1)SC(Nc1cccc3ccccc13)N2 (stereo not drawn)	-11%
CC(=O)Nc1ccc(NC(=O)CSC2=NCCS2)cc1	-23%
O=C(CCNC(=O)c1ccc(Cl)cc1)NCc1ccccc1Cl	-1%
N#Cc1ccc[n+](CC(=O)c2ccc(NC(=O)c3ccccc3)cc2)c1	5%
CCc1cccc(NS(=O)(=O)c2c(C)nc3sc(CC)nn3c2=O)c1	-4%&8%
Clc1ccc(CNc2ncnc3[nH]ncc23)cc1Cl	-9%
CCCn1c(SCC(=O)OCc2ccccc2)nc2c1c(=O)n(C)c(=O)n2C	12%
O=C(Cn1nnc2c(cnn2-c2ccc(F)cc2)c1=O)c1ccccc1F	-4%
CCOC(=O)C1CCN(c2nc(N)c3c(N)nc(SCC(=O)O)cc3c2C#N)CC1	?
CC(C)Oc1ccc(C(=O)Nc2ccc(NC(=O)c3ccco3)c(Cl)c2)cc1	1%
COc1cc(OC)c(C2SCCS2)c(OC)c1	-26%
Cc1ccc(C2(C)NC(=O)N(CC(=O)N(C)CC(=O)Nc3cccc(F)c3)C2=O)cc1 (stereo not drawn)	-15%
CCOC(=O)c1cnc2c(OC)cccc2c1NCc1cccnc1	26%
CCCOC(=S)Nc1ccccc1	23%
Clc1ccc(N2CCN(c3cnc4ccccc4n3)CC2)cc1	4%
CC(=O)C1=C(C)NC2=C(C(=O)CC(C)(C)C2)C1C (stereo not drawn)	-16%

Reprinted at random: six records from the list, in no set order.
SMILES	VDR inhibitor
CCc1cccc(NS(=O)(=O)c2c(C)nc3sc(CC)nn3c2=O)c1	-4%&8%
CCOC(=O)c1cnc2c(OC)cccc2c1NCc1cccnc1	26%
CCOC(=O)C1CCN(c2nc(N)c3c(N)nc(SCC(=O)O)cc3c2C#N)CC1	?
CCCOC(=S)Nc1ccccc1	23%
Clc1ccc(CNc2ncnc3[nH]ncc23)cc1Cl	-9%
O=C(Cn1nnc2c(cnn2-c2ccc(F)cc2)c1=O)c1ccccc1F	-4%

Additional entries
SMILES	VDR inhibitor
COc1ccc(S(=O)(=O)N2CCOCC2)cc1NC(=O)c1cccs1	14%
N#Cc1cc([N+](=O)[O-])ccc1N1CCN(c2ccccc2O)CC1	2%
COc1cc(/C=N/NC(=O)CCN2CCN(C)CC2)cc2c1OCO2	?
COc1ccccc1/C=N/n1c(N)c(C(=O)NC2CCCCC2)c2nc3ccccc3nc21	-11%
Cc1[nH]nc(-c2ccc(O)cc2O)c1-c1nc2ccccc2s1	10%
O=C(Cn1cnc2c(nnn2Cc2ccc(F)cc2)c1=O)NCc1ccc2c(c1)OCO2	-3%
Cc1cc(S(=O)(=O)N2CCOCC2)ccc1OCC(=O)Nc1cccc(F)c1	?
CCc1nn(CCCC(=O)Nc2ccc(C)cc2C)c(=O)c2cc3occc3n12	-3%
CCOc1ccc(-n2c(SCC(=O)N3CCCC3)nc3c([nH]c4ccccc43)c2=O)cc1	8%
c1cncc(-c2nc(N3CCOCC3)c3c4c(sc3n2)CCC4)c1	-22%
CCOc1ccc(CC(=O)Nc2ccc3c(c2)N(C)C(=O)c2ccccc2S3)cc1OCC	0%
COc1ccc(CCNC(=O)c2cc3cccc4c3n2CC(C)S4)c(OC)c1OC (stereo not drawn)	4%
CCOC(=O)C1(CCOc2ccccc2)CCN(CC=C(C)C)CC1	-12%
Cc1ccc2c(c1)C(c1ccc(F)cc1)N(C(=O)c1ccc(S(=O)(=O)N3CCCCC3)cc1)CC(=O)N2 (stereo not drawn)	15%
O=C(COC(=O)Cn1cnc2ccccc21)Nc1ccccc1C(F)(F)F	12%
Cc1ccc(O)c(NC(=O)c2ccc(Br)c(S(=O)(=O)N3CCCCC3)c2)c1	3%
CCn1nc(-c2ccccc2)c(-c2ccccc2)c(C(=O)Nc2ccc(NC(C)=O)cc2)c1=O	4%
C[N+](C)(CC#Cc1ccccc1)CC(=O)c1ccccc1	-16%
Cc1ccc(N(C(=O)c2ccc(Br)o2)C2C=CS(=O)(=O)C2)cc1 (stereo not drawn)	-24%
Cn1c(=O)oc2cc(S(=O)(=O)N3CCCC(C(=O)NCCc4ccc(Cl)cc4)C3)ccc21 (stereo not drawn)	-8%
O=C(NC(=S)NCC1CCCO1)c1cccc([N+](=O)[O-])c1 (stereo not drawn)	-3%
CCOC(=O)c1c(Oc2ccc(OC)cc2)nnc(-c2ccccc2)c1-c1ccccc1	19%
COc1ccccc1NC(=O)CSc1nc2sc(C)c(C)c2c(=O)n1Cc1ccco1	-12%
COc1ccc(NC(=O)C2CC(=O)N(C)C(=Nc3ccc4c(c3)OCO4)S2)cc1 (stereo not drawn)	-5%
NC(=O)c1ccc(Oc2ccc(Cl)cc2)c([N+](=O)[O-])c1	1%
CCOC(=O)C(=CNc1ccccc1Cl)C(=O)OCC	-5%
Cc1ccccc1CN(C)c1ccc(S(=O)(=O)N2CCN(C)CC2)cn1	3%
Clc1cccc(Cl)c1/C=C/c1ccn[nH]1	26%
CC1CCC(NC(=O)c2ccc(NC(=O)CC3SC(N4CCCC4)=NC3=O)cc2)CC1 (stereo not drawn)	-7%
COC(=O)c1cc(OC)nc2ccc(Br)cc12	-6%
CCOC(=O)Oc1ccc2c(c1)C(C)=CC(C)(C)N2C(=O)OCC	5%
Cc1ccsc1C(=O)NNC(=O)CCN1CCN(c2ccccc2)CC1	-2%
CC1CCN(CCNC(=O)CN(C)S(=O)(=O)c2cccc3nsnc23)CC1	-14%
O=C(NC1CCCCC1)NS(=O)(=O)c1ccc2c(c1)CCC2	7%
Cc1c(Cl)cccc1NC(=O)c1cccnc1	5%
CCOc1ccc(-c2nc(CSCC(=O)NCCc3ccc(OCC)c(OCC)c3)c(C)o2)cc1	11%
CCS(=O)(=O)N1Cc2ccccc2CC1C(=O)N(C)CC(=O)Nc1ccc(F)c(F)c1F (stereo not drawn)	2%
COc1cccc(-c2cc(C(=O)Nc3ccc(OC)cc3OC)no2)c1	-7%
O=C(CNS(=O)(=O)c1ccc(Br)cc1)NC1CCCC1	-3%
CCc1ccc(NC(=O)CCN2C(=O)c3cccnc3C2=O)cc1	-6%
O=C(/C=C/c1ccccc1Cl)N(c1ccccn1)C1CCCCC1	-8%
Cc1c(C(=O)NCCN2CCOCC2)oc2ccccc12	-19%
O=[N+]([O-])c1ccc(Sc2cccc3cccnc23)cc1	-1%
CCOc1ccc2[nH]c(=O)c(CN(CCc3ccccc3)C(=O)N3CCOCC3)cc2c1	-6%
CCOC(=O)c1oc2ccc(S(=O)(=O)n3nc(-c4ccc(Cl)cc4)cc3N)cc2c1C	-8%
CCC(Sc1nc2cc3c(cc2c(=O)n1Cc1ccco1)OCO3)C(=O)NCCOC (stereo not drawn)	-1%
COc1ccc(OC)c(S(=O)(=O)Nc2c(NC3CCCCC3)c3ccccc3oc2=O)c1	15%
O=[N+]([O-])c1ccc(NCc2ccccc2N2CCC(CO)CC2)nc1	-18%
Nn1c(Cc2ccccc2)nc2cc(Cl)ccc2c1=O	-4%
Cc1ccc(N(CC(=O)NCc2ccc(F)cc2)C(=O)c2snc(C(N)=O)c2N)cc1C	-1%
CCCCN(C)S(=O)(=O)c1ccc(C(=O)Nc2ccc(-c3nc4ccc(C)cc4s3)cc2)cc1	5%
COc1ccc(S(=O)(=O)N(C)c2ccc(C(=O)Nc3ccccc3C(=O)N3CCOCC3)cc2)cc1	-6%
O=C(COC(=O)c1ccc([N+](=O)[O-])cc1)Nc1cccnc1Cl	2%
CCc1[nH]nc2c1C(c1cccc(OC(=O)N3CCOCC3)c1)C(C#N)=C(N)O2 (stereo not drawn)	14%
O=C(O)c1cc(N/C(=N\S(=O)(=O)c2ccc(F)cc2)c2ccccc2)ccc1O	-15%
S=C(NCCN1CCOCC1)N1CCN(c2cccc(Cl)c2)CC1	-10%
COc1ccccc1NC(=O)C1=C(C)Nc2nc(-c3cccnc3)nn2C1c1ccccn1 (stereo not drawn)	-6%
Oc1ccc(CN2CCN(Cc3ccccc3)CC2)c2cccnc12	22%
O=C(c1cc2ccccc2o1)N1CCN(S(=O)(=O)c2cccs2)CC1	4%
COc1ccc(OC)c(-c2noc(CSc3nnc(Cc4ccccc4)n3-c3cccc(C)c3)n2)c1	8%
CCOC(=O)C1=NNC2C(=O)N(CC)C(=O)C12 (stereo not drawn)	15%
O=C(OCc1ccccc1)/C(=C(\O)c1ccccc1Br)c1ccc(-c2ccccc2)cn1	-21%
O=C(C1=C[C@H](c2ccc(C(F)(F)F)cc2)C[C@H](OCc2ccc(CO)cc2)O1)N1CCN(Cc2ccc3c(c2)OCO3)CC1	-13%

Filtered by structure: the compounds so far containing an aryl thioether with sulfur outside any ring
SMILES	VDR inhibitor
CCCn1c(SCC(=O)OCc2ccccc2)nc2c1c(=O)n(C)c(=O)n2C	12%
CCOC(=O)C1CCN(c2nc(N)c3c(N)nc(SCC(=O)O)cc3c2C#N)CC1	?
CCOc1ccc(-n2c(SCC(=O)N3CCCC3)nc3c([nH]c4ccccc43)c2=O)cc1	8%
COc1ccccc1NC(=O)CSc1nc2sc(C)c(C)c2c(=O)n1Cc1ccco1	-12%
O=[N+]([O-])c1ccc(Sc2cccc3cccnc23)cc1	-1%
CCC(Sc1nc2cc3c(cc2c(=O)n1Cc1ccco1)OCO3)C(=O)NCCOC (stereo not drawn)	-1%
COc1ccc(OC)c(-c2noc(CSc3nnc(Cc4ccccc4)n3-c3cccc(C)c3)n2)c1	8%

An excerpt. The share of hits here may be higher or lower than overall.
